Assay outcomes: PubChem BioAssay, several laboratories
GALR2 agonist: GALR2 receptor agonists, primary screen, cell-based; Galanin receptor type 2 (Homo sapiens), O43603; AID 803, 2007; activation, %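 (tested at 5 µM)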; GALR2-expressing cells, agonist activation read-out; 140,000 tested, 0.48% active;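 active = above mean plus 3 SD of all compounds, about 5% in these data, not always enough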;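 also: 0% = vehicle buffer wells and 100% = reference agonist at full effect; tested in CHO reporter cells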
Target sequence (O43603 whole entry, looked up): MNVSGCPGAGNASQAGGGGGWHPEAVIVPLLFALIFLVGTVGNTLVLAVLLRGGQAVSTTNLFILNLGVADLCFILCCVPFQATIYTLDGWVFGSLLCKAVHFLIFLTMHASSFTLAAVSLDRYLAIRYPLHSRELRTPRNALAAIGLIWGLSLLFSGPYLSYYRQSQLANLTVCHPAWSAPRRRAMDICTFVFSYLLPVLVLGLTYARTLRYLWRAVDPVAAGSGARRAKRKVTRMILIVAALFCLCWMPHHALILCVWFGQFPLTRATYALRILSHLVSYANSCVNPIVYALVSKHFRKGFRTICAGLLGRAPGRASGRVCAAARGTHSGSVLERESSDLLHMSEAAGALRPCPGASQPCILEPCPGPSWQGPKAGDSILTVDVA
Insulin prom inh: inhibitors of insulin promoter-driven GFP, primary screen, imaging, TRM-6 cells (human fetal islet line), eGFP reporter, cell count; reporter expression induced with tamoxifen; inhibition, % at 2 µM; 130,000 tested, 0.9% active;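 active = inhibition above the mean plus 3 SD, with well images judged a real hit on visual review, cut at about 60% in these data, passing the limit was not always enough; inconclusive = inhibition over the cutoff but images rejected on review; inactive = inhibition not above the cutoff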
HSV replic up: enhancers of HSV replication in host cells, fold increase, host cell viability; 220,000 tested, 0.005% active; HSV replication augmentation in cells; AID 1956, 2009; maximum fold increase;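 active = peak rise of 1.5-fold or more in the series; inconclusive = self-fluorescent or not available for retest; tested in PC3 cells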;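 also: first round at 10 µM; read as green reporter fluorescence; hits show the peak of a series up to 25 µM; 1 = signal of infected wells without compound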
PKD1 kinase inh: inhibitors of human PKD1 kinase, biochemical, fluorescence polarization | PKD1 kinase fluorescence polarization assay | 200,000 tested, 0.056% active | Serine/threonine-protein kinase D1 (Homo sapiens), Q15139 | inhibition, %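 (about 10 µM by stock and volumes)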;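 active = inhibition of 50% or more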;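 also: controls were vehicle for no effect and a reference inhibitor for full effect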
RGS16-Gao HTS: modulators of RGS16 binding to Galphao, primary screen, biochemical, human proteins, multiplexed bead flow cytometry. 220,000 tested, 0.38% active. binding response (% of control), % at 10 µM. AID 1441, 2008. Regulator of G-protein signaling 16 (Homo sapiens) + Guanine nucleotide-binding protein …. bead-based flow cytometry RGS16-Galphao binding, fluorescence; actives lie on both sides;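 active = below 25% or above 175%, edge rows of some plates excepted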;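 also: Galphao activated by GDP with aluminum fluoride before binding; 100% = wells without compound and 0% = beads without RGS; some results beyond the cut were filed as inactive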
Target sequence (O15492 whole entry, looked up): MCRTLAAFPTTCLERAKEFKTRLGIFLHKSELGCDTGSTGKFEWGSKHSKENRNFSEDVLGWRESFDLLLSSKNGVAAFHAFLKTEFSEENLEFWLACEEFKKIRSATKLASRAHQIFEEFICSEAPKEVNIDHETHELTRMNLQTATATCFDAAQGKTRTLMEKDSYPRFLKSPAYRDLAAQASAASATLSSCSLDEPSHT
Target sequence (P09471 whole entry, looked up): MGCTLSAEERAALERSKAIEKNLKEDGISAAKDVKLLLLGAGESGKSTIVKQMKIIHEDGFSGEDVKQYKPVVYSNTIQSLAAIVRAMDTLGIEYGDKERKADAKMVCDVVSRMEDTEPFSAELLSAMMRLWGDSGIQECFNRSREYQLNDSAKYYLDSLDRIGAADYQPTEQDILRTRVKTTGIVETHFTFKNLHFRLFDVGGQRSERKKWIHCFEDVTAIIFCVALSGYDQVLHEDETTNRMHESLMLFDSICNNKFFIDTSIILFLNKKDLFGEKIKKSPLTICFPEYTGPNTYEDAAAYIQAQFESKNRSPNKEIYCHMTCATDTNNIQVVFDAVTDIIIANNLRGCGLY
Insulin prom inh cell count: also measured in Insulin prom inh; calls as there; normalized cell count, %; measured here: cell count, toxicity; reference of the scale not given here;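 cells exposed to compound for 48 h; stained nuclei by imaging scaled within each plate; lower means fewer cells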
HSV replic up primary fold: second read-out of HSV replic up, no call of its own (marks repeat the call); fold increase; compound at 10 µM; measured here: primary screen fold increase 10 uM; tested in PC3 cells;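 GFP signal in the first replicate; 1 = infected wells without compound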
The depositor's hits bear a star; i = inactive; u = inconclusive; x = no result given.

compound,GALR2 agonist,Insulin prom inh,Insulin prom inh cell count,HSV replic up,HSV replic up primary fold,PKD1 kinase inh,RGS16-Gao HTS
COc1ccc(OC)c(-n2nnnc2SCC(=O)N2CCN(C(=O)c3ccco3)CC2)c1,x,x,x,i,0.99,-10.6,101.5
COc1cccc(NC(=O)Nc2ccc(Cc3ccncc3)cc2)c1,-1.5,16.7,102.3,i,0.96,-7.9,108.4
O=S1(=O)CCC(NCC2CCCO2)C1 (centres undefined),-3.5,-12.1,93.6,i,0.91,14.3,104.3
O=C(N/N=C/c1cccnc1)c1ccc(S(=O)(=O)N2CCCCCC2)cc1,x,x,x,i,1.08,x,79.9
CC[n+]1c(/C=C2\C=C(C)CC(C)C2)sc2ccccc21 (centres undefined),-0.9,x,x,i,0.87,0.8,94.3
Cc1ccc(C2=NNC(=O)C(c3ccc(Cl)cc3)C2)cc1 (centres undefined),1.0,x,x,i,1.02,6.4,101.5
COc1cccc(C2C(C(N)=O)=C(C)Nc3nc(CCCO)nn32)c1OC (centres undefined),-0.5,x,x,i,1.11,-9.0,91.3
O=C(c1ccccc1)N1CCCOC1c1ccccc1 (centres undefined),0.4,16.7,83.8,i,1.03,0.5,108.8
CC(C)=CCN1CCN(Cc2cn[nH]c2C2CCCCC2)CC1CCO (centres undefined),x,x,x,i,1.22,13.3,92.0
Cc1occc1C(=O)NNC(=S)NCC(C)C,-2.2,26.7,62.7,i,1.13,1.0,103.6
O=C(CC1OC(=O)c2ccccc21)NC1CCCCC1 (centres undefined),-0.8,-23.5,167.0,i,0.96,-2.7,102.5
CCN(CC)S(=O)(=O)c1cccc(NC(=O)COc2ccc(Cl)cc2Br)c1,-1.2,x,x,i,1.07,-8.4,100.6
Cc1ccc(-n2c(Cn3nc(C(F)(F)F)cc3C)n[nH]c2=S)cc1,-0.9,7.1,82.6,i,1.11,0.8,54.2
O=C(c1cc2c(=O)oc3ccccc3c2s1)N1CCOCC1,-3.6,x,x,i,0.99,-13.0,100.1
NC(=O)c1sc2nc3c(c(-c4ccc(Cl)cc4)c2c1N)CCCC3,-1.5,x,x,i,1.04,-5.3,96.6
CCc1cccc2c(C(=O)C(F)(F)F)cn(CC(=O)N3CCOCC3)c12,x,x,x,i,1.2,-1.4,103.6
COc1ccc(C(=O)NCC(=O)OCC(=O)c2ccc(Cl)cc2)cc1OC,x,x,x,i,1.01,-4.6,95.5
CCOC(=O)c1ccc(NC(=S)N2CCCC(C)C2)cc1 (centres undefined),x,-5.9,101.4,i,0.93,-2.0,94.2
CCN(CC)CCCNC(=O)Cn1ncc2c(=O)oc3ccc(C)cc3c21,x,x,x,i,0.54,-16.3,119.7
COc1ccccc1/C=C/C(=O)NCc1ccccn1,x,x,x,i,1,-4.0,102.6
CCOC(=O)CC(NC(=O)C1c2ccccc2Oc2ccccc21)c1ccccc1Cl (centres undefined),0.2,-50.0,63.7,i,1.04,-2.1,126.4
C=CCNC(=O)CC1C(=O)NCCN1Cc1ccc(-c2ccccc2)cc1 (centres undefined),x,x,x,i,0.91,-3.1,100.0
CC(C)CC(=O)Nc1cc([N+](=O)[O-])ccc1Cl,-3.0,x,x,i,1.21,-5.7,99.8
COCC(=O)Nc1ccc(S(=O)(=O)Nc2cc(C)nc(C)n2)cc1,-2.1,0.0,129.8,i,0.84,-4.6,99.8
Cc1cccc(NC(=O)COC(=O)c2ccc3c(=O)n4c(nc3c2)CCC4)c1,-0.6,-34.2,108.6,i,0.92,6.3,101.5
Cc1ccc(NC(=O)CN2CCc3ccccc3C2)cc1F,x,x,x,i,1.01,x,97.4
CCOC(=O)N1CCN(C(=O)c2ccc3c(c2)sc2nc(-c4ccccc4)cn23)CC1,0.1,-100.0,118.4,i,0.967,5.2,102.0
CNC(=O)c1c(C)nn(-c2ccc(F)c(Cl)c2)c1-c1cc(C)on1,x,x,x,i,1.29,x,98.0
Cc1ccc(NC(=O)C(=O)NCc2ccc(/C=C(/C#N)C(=O)NCc3cccnc3)o2)cc1C,-1.5,x,x,i,1.17,-6.5,101.3
CCCSc1cc(NCCOC(=O)CCC)c([N+](=O)[O-])c2nonc12,-0.7,6.7,92.5,i,0.7,1.9,91.8
Cc1nc2ccccc2c(=O)n1/N=C/c1cn[nH]c1-c1ccccc1,x,x,x,i,0.92,x,100.9
COc1ccc(C(NC(=O)/C=C\c2ccco2)c2ccc(OC)c(OC)c2)cc1 (centres undefined),-0.4,-8.7,76.7,i,0.81,-1.8,97.2
CCOC(=O)c1ccc(CNCc2ccc(Br)cc2)cc1,-0.1,0.0,116.8,i,0.9,4.8,103.3
CC(C)[C@H](NS(=O)(=O)c1ccc2c(c1)OCCO2)C(=O)OCC(=O)Nc1cc(Cl)ccc1Cl,-1.4,x,x,i,0.95,5.5,100.5
CCSC1=C(C#N)C(c2ccccc2OC)CC(=O)N1 (centres undefined),0.2,0.0,63.9,i,0.9,-4.6,97.0
CN(C)/C=C1/N=C(c2ccccc2)OC1=O,-0.8,3.5,53.5,i,0.87,-5.3,100.8
CN1CCN(C2=C(Cl)C(=O)N(c3cccc(Cl)c3)C2=O)CC1,-0.9,13.2,75.0,i,1.12,-10.5,121.7
COC(=O)C(C(=O)OC)c1ccc(-n2cccc2)cc1,x,x,x,i,0.98,1.6,99.4
CCOC(=O)N1CC=C2C(C#N)=C(N)C(C#N)(C#N)[C@H](c3ccccc3OCC)[C@H]2C1,-1.8,9.1,100.3,u,x,-11.1,101.1
CN(CCCC[C@H](CNCc1ccc(-c2ccccc2)cc1)N1C[C@H](c2ccccc2)N(CCc2ccc(Cl)c(Cl)c2)C(=O)C1=O)Cc1ccc(-c2ccccc2)cc1,x,x,x,i,0.76,x,100.5

The closing three compounds of the part before come first, to join the parts:
compound,GALR2 agonist,Insulin prom inh,Insulin prom inh cell count,HSV replic up,HSV replic up primary fold,PKD1 kinase inh,RGS16-Gao HTS
COC(=O)C(C(=O)OC)c1ccc(-n2cccc2)cc1,x,x,x,i,0.98,1.6,99.4
CCOC(=O)N1CC=C2C(C#N)=C(N)C(C#N)(C#N)[C@H](c3ccccc3OCC)[C@H]2C1,-1.8,9.1,100.3,u,x,-11.1,101.1
CN(CCCC[C@H](CNCc1ccc(-c2ccccc2)cc1)N1C[C@H](c2ccccc2)N(CCc2ccc(Cl)c(Cl)c2)C(=O)C1=O)Cc1ccc(-c2ccccc2)cc1,x,x,x,i,0.76,x,100.5
Cc1ccccc1C(=O)N1CCC(C(=O)O)CC1,-0.7,-8.3,94.5,i,1.06,-5.8,93.8
S=C(NCc1ccco1)Nc1cc(-c2ccccc2)[nH]n1,x,x,x,i,1.05,3.5,99.9
COc1ccc(Nc2nccc3c2nnn3C)cc1,-2.1,x,x,i,0.92,-12.9,107.2
COc1ccc(CCN=C(N)NS(=O)(=O)c2cccs2)cc1,x,0.0,106.9,i,0.95,-2.4,112.7
NS(=O)(=O)c1cccc(NC(=O)CSc2nc3ccc(Cl)cc3[nH]2)c1,x,-41.7,109.9,i,0.92,-5.8,107.5
Cc1nc(NC(C)c2ccccc2)c2oc3ccccc3c2n1 (centres undefined),-0.7,17.2,134.1,i,0.82,12.0,100.8
O=C1C2C3CC(C(Br)C3Br)C2C(=O)N1c1ccccn1 (centres undefined),-0.1,-39.1,105.0,i,0.91,-3.4,102.5
CCCc1cc(C(=O)Nc2cc(C)nn2-c2ccccc2)no1,-0.9,x,x,i,0.91,-5.6,103.0
Cn1c(N)c(C(=O)c2ccc(F)cc2F)c(=O)n(C)c1=O,-0.2,x,x,i,1.11,10.9,100.5
OC(Cn1cncn1)(c1ccccc1)c1ccccc1,-1.5,42.9,93.0,i,0.91,-2.9,112.4
CC(C)CCNC(=O)C1CCCN1C(=O)NC1CCCCC1 (centres undefined),0.8,38.5,108.1,i,1.05,-4.1,106.0
N#Cc1nc(COc2ccc(Br)cc2)oc1NCCCn1ccnc1,-2.4,x,x,x,x,2.2,100.9
CN(C)c1cccc(C(=O)NNC(=S)NC2CCCC2)c1,x,x,x,i,0.98,-4.9,101.4
CCCC(=Nc1ccccc1OC)C1=C(O)CC(c2ccccc2)CC1=O (centres undefined),-0.6,33.3,143.3,i,0.89,-3.6,49.5
CCNC(=S)NNC(=O)c1csc2c1CCCC2,-1.1,x,x,i,1.04,2.0,95.8
COC(=O)C(NC(C)=O)(Nc1nc2c(C)cc(C)cc2s1)C(F)(F)F (centres undefined),-1.0,17.2,116.0,i,0.963,-4.2,102.3
Cc1cnc(NC(=O)CN2CCN(c3ccccn3)CC2)s1,-0.3,-10.0,106.5,x,x,-3.4,102.1
CNC(=O)CCC(=O)Nc1ccc(C(=O)OC)cc1,-2.2,x,x,i,1.01,-7.1,103.3
Cc1ccc(N2C(=O)C3CCC(C)(C2=O)C3(C)C)cc1 (centres undefined),x,x,x,i,0.71,x,100.4
Cc1ccc2oc(-c3ccc(NC(=O)CC(C)C)cc3)nc2c1,-2.7,9.1,94.7,i,0.95,-17.6,109.0
Oc1ccc(C2C=C(c3ccc(F)cc3)Nc3ncnn32)cc1 (centres undefined),x,x,x,i,1.31,x,101.2
N#CCn1c(C2CCCCC2)nc2ccccc2c1=O,-1.0,x,x,i,0.9,-10.4,99.5
Cc1ccc(S(=O)(=O)CC(=O)NC2CC2)cc1,-2.8,-3.3,103.4,i,1.06,0.4,102.7
N#CC(C#SN)=C1CCCCC1,-1.7,x,x,i,1.08,-10.4,105.9
COC(=O)c1sccc1NC(=O)CN(C)NS(=O)(=O)c1ccc(Cl)cc1,-1.6,10.7,85.1,i,1.07,2.0,97.8
O=C(OCc1ccc([N+](=O)[O-])cc1)c1ccc2ccccc2n1,x,x,x,i,0.96,x,101.8
CCCC(=O)Nc1nc(-c2ccc3c(c2)CCN3S(C)(=O)=O)cs1,-2.4,-28.6,172.1,i,0.96,-8.6,92.0
O=C(NCc1cccnc1)c1cccc(C(F)(F)F)c1,-1.8,-75.0,92.4,i,1.11,-4.4,93.5
O=C(O)c1cc(N2C(=O)CCC2=O)ccc1NCc1cccnc1,x,x,x,i,0.89,x,104.2
CC1(C)Cc2noc(N)c2C(C)(C)N1OC(=O)c1scc2c1OCCO2,-0.8,-57.1,105.1,i,1.03,4.2,103.8
CCOc1[nH]n(-c2ccccc2)c(=O)c1C=Nc1ccc(OC)cc1,x,x,x,i,0.96,-0.1,101.7
CNC(=O)c1cc2cc(Br)ccc2s1,x,x,x,i,0.98,1.2,103.7
COc1ccc(NC(=O)COC(=O)COc2cccc(Br)c2)cc1OC,x,x,x,i,0.91,-2.9,103.0
NC(=O)C[C@H]1NC(=O)[C@H](CCC(=O)O)NC(=O)c2cc([N+](=O)[O-])cc(I)c2NCCC[C@@H](C(N)=O)NC1=O,-0.7,22.7,121.9,i,1.04,2.4,107.1
O=C(NC1CCCC1)C(c1ccccn1)N(C(=O)c1csnn1)C1CC1 (centres undefined),-2.0,x,x,i,0.8,-7.3,90.9
Cc1ccc(C)c(-n2c(=O)c(C#N)cc3c(=O)n4ccccc4nc32)c1,x,-22.2,57.7,i,0.94,3.5,98.4
CNC(=O)c1ccccc1Sc1ccccc1CO,x,x,x,i,1.01,x,97.5
Cc1cccc(OCCCC(=O)NC(C)C)c1,0.5,-54.3,101.5,i,0.94,-13.1,88.7
O=C(CN1CCN(CCC(=O)Nc2ccccc2F)CC1)Nc1ccc(Cl)cc1,-2.9,x,x,x,x,-9.9,111.4
CCOC(=O)/C=c1\s/c(=C\c2c(OC)ccc3ccccc23)c(=O)n1CC(=O)NCC1CCCO1 (centres undefined),-1.0,-16.7,101.0,x,x,-5.7,95.5
O=C(O)c1ccc(N2CCCCC2)cc1O,x,x,x,i,1.07,x,106.1
